Six1-Eya2 blk: inhibitors of human Six1/Eya2 interaction; 360,000 compounds, 0.56% hits; Q15475+O00167; AlphaScreen GST-Six1/His-Eya2 binding, biochemical; hits give low values; control for the full effect not named in the record; activity change, % (test concentration not listed); in the data active = activity change below about -65%; inconclusive = about -30% to -65%; inactive = above about -30%; note: % is set by controls: 0 for no effect and ±100 for the full control effect
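AlphaScreen luminescence read after one hour at 37 °C in darkness. Pin-transferred compounds met GST-Six1 and His-Eya2 protein (5X stock 250 nM/500 nM) plus glutathione donor and Ni-chelate acceptor beads (5X, 50 ug/mL).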
TRPML1 ag: activates the human TRPML1 channel. TRPML1-expressing cells, Ca2+ dye fluorescence, FDSS; host cell line not named in the record; reference of the full effect not given here. 410,000 compounds, 0.12% hits. activation, % (concentration not given with the values). Q9GZU1; in the data active = activation above about 50%; inconclusive = about 30% to 50%; inactive = below about 30%; note: 0% is about no effect; the text of the record puts the active cut at 80%
Target sequence (Q9GZU1 whole entry, looked up): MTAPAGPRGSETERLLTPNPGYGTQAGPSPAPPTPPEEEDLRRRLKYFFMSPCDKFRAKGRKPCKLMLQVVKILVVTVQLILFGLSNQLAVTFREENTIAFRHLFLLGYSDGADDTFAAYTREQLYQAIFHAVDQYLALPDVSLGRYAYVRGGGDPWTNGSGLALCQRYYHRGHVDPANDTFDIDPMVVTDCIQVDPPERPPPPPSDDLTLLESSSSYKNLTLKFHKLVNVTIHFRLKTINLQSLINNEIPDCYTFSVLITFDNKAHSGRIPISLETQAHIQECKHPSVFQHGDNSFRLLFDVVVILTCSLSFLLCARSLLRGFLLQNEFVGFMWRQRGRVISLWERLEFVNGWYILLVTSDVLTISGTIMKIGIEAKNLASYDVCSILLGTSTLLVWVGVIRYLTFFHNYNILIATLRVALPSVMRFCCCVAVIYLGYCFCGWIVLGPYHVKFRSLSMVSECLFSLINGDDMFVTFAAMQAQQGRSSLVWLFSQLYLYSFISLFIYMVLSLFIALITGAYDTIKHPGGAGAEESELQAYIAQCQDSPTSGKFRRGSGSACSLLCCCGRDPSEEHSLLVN
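Cells: TRPML1-DL, 1X Tet inducer, ~16 h at 37 degrees C/5% CO2. Dye: ABD Ca8 no-wash + quencher, 45-90 min RT. Read: 10 s baseline, compound add, 110 s agonist phase; 54-4 EC80 (4uM final), 110 s antagonist phase.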
D2 potentiator: human D2 receptor positive allosteric modulation. DiscoveRx D2 beta-arrestin cells, luminescence, 90 min; 100% = 57 uM dopamine signal. 360,000 compounds, 0.23% hits. potentiation, % (no concentration beside the values). AID 624464. P14416; active = potentiation of 50% or more; inconclusive = 30% to 50%; inactive = 30% or less;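 note: compound concentration not given in the record; tested on top of an EC20 dose of dopamine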
Target sequence (P14416 whole entry, looked up): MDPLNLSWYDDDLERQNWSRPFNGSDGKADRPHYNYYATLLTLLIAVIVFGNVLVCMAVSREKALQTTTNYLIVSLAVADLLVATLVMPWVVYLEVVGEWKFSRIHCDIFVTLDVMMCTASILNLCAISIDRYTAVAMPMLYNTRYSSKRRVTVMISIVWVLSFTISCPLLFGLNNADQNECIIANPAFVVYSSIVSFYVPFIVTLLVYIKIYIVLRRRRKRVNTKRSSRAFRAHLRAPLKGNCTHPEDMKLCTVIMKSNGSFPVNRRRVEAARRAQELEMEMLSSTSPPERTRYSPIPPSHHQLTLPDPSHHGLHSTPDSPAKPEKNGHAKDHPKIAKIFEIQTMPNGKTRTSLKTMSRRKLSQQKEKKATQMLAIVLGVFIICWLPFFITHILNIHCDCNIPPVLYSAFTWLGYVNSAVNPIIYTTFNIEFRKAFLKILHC
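D2 cells co-treated with compound plus 50 nM dopamine (EC20) for 90 min at 37 deg C to detect potentiation. Beta-arrestin recruitment was read as enzyme-fragment luminescence after 1 h at ambient temperature. Full response was set by 57 uM dopamine.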
PINK1 modulator: modulators of PINK1 expression; 410,000 compounds, 0.2% hits; Potency, µM (doses to about 76.6 µM), for the others: top-dose activation (PINK1 increase), most hits filed as activators; PINK1 immunofluorescence, high-content cytometry, 24 h; active = well fitted activation curve with a large enough effect; inconclusive = small, poorly fitted or top-dose-only effect; inactive = flat fitted curve, though single readings scatter; cell line not stated here;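 note: potency is the fitted concentration of half-maximal effect; % of control where 0% means no effect; nearly all actives have a fitted effect of over 65% in size; a mitochondrial uncoupler was the plate control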
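Decision-based qHTS: stable cells, 24 h exposure to five compound concentrations, CCCP as control. Fixed cells stained for PINK1 plus nuclear, mitochondrial and cell markers, cytometer read.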
D2 ag: activates the human D2 dopamine receptor. activation, % (concentration not given with the values). AID 624465. DiscoveRx PathHunter D2 beta-arrestin, luminescence, 90 min; 100% = 57 uM dopamine signal. 360,000 compounds, 0.084% hits; in the data active = activation above about 40%; inconclusive = about 15% to 40%; inactive = below about 15%; note: the text of the record calls up to 30% inactive
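DiscoveRx PathHunter D2 beta-arrestin cells (2,100/well) attached overnight, then compound-stimulated 90 min at 37 C in HBSS/10 mM HEPES/0.1% Tween-20 buffer; beta-galactosidase complementation read by luminescence after 1 h at ambient temperature. Dopamine 57 uM final (EC100) as control.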
CtBP-E1A inh: blocks the CtBP interaction with E1A. AlphaScreen GST-E1A/His-CtBP binding, 1536-well; hits give low values; control for the full effect not named in the record. activity change, % (no concentration beside the values). 340,000 compounds, 0.49% hits; in the data active means activity change below about -65%; inconclusive means about -30% to -65%; inactive means above about -30%; note: % is set by controls: 0 for no effect and ±100 for the full control effect
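Steps: dispense buffer (Tris pH 8.0, NaCl 300 mM, TCEP 1 mM, BSA, Tween 20); add 5X protein mix (GST-E1A, His-CtBP, 125 nM each); pin 23 nL compound; 2 h at 37 °C, dark; add 5X beads (50 ug/mL); 1 h; read.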
Starred values were filed as active, the others as inactive; ? = inconclusive; / = no result given; [ ] = dose if it differs, or a comment.

SMILES	Six1-Eya2 blk	TRPML1 ag	D2 potentiator	PINK1 modulator	D2 ag	CtBP-E1A inh
O=C(Nn1cnnc1)c1ccc(F)c(S(=O)(=O)N2CCCCC2)c1	13	0.1	2	0.8%	-13	8
COC(=O)[C@H](CCSC)NC(=O)NCCc1ccccc1F	3	0.0	-1	5.7%[38.3 µM]	1.7	9
O=C(C1CCC(=O)N1Cc1cccnc1)N1CCN(c2ccc(F)cc2)CC1 (stereo unspecified)	-2	-0.5	1	1.1%	-4.0	2
COc1cc(Br)c(Br)c(Br)c1N	-3	2.9	-4	4.2%	1.9	9
COc1ccc(-[n+]2c(C)cc(/C=C3\Sc4ccccc4N3C)cc2C)cc1	12	69*	-8	18%	-4.6	1
COC(=O)c1c(C)nc2nonc2c1N	7	2.1	14	0.0%	-1.9	/
CCN(CC(=O)Nc1ccc(OC)cc1)C(=O)Cc1coc2cc(C)c(C)cc12	-21	0.7	-16	0.0%	-2.2	17
CCOC(=O)[C@]12CCCC=C1N(Cc1ccco1)C(=O)[C@H](CC(=O)N1CCSCC1)C2	4	-1.0	/	0.2%	/	5
O=C(C1=C(O)C(=O)N(Cc2cccnc2)C1c1cccc(Oc2ccccc2)c1)c1ccco1 (stereo unspecified)	-18	-0.6	6	-0.3%	-0.1	/
Cc1[nH]c(C)c(S(=O)(=O)NCCc2ccccc2)c1C(=O)N1CCCCC1	3	-0.3	-4	-0.2%	0.0	2
Cc1ccc(OCCNC(=O)c2ccccc2OCc2c(C)noc2C)cc1	6	0.1	-6	2.4%	1.3	/
COC(=O)c1ccc(Oc2cc(C)nc(NCc3ccccc3)n2)cc1	-1	10	-11	8.8%	2.3	2
CCC(CC)c1nnc(NC(=O)CCc2ccccc2OC)s1	-2	1.7	-1	5.8%	1.8	4
CCCCC1N2CC3([N+](=O)[O-])CN1CC([N+](=O)[O-])(C2)C3(C)C (stereo unspecified)	7	0.0	0	-0.7%	-2.2	4
NC(=O)COC(=O)/C=C/c1ccc2ccccc2n1	-1	0.0	-4	4.1%	2.1	/
CCOC(=O)c1ccc(NC(=O)N2CCCCC2)cc1	-1	-0.5	-1	-0.8%	-1.7	3
CCCNC(=O)C1(C)CCCN(C(=O)c2ccccc2OC(F)(F)F)C1 (stereo unspecified)	7	-0.6	-4	-0.9%	-2.7	1
CC(=O)Nc1cccc(Oc2ncccc2[N+](=O)[O-])c1	0	-0.4	-3	4.3%	2.5	/
Cc1cc2nc(C3CCCCC3)c(Cc3ccccc3C(F)(F)F)n2c(C)c1Br	0	0.2	/	?	/	2
COC(=O)C(C)Oc1ccc2cc(-c3ccccc3)c(=O)oc2c1 (stereo unspecified)	24	0.4	-3	-0.6%	1.2	34
Cc1cc(=O)oc(C)c1C(=O)NCCc1ccc(F)cc1	5	-0.4	-14	-0.9%	-1.5	12
CN(C)Cc1csc(NC(=O)Nc2ccccc2Oc2ccccc2)n1	-8	0.4	-7	4.7%	-3.1	-4
CC(=O)Nc1cccc(/C(C)=N/NC(=O)c2cccc(S(=O)(=O)N3CCOCC3)c2)c1	0	-0.2	-3	1.0%	-3.7	18
Cc1cccn2c(=O)c3cc(C(=O)NC(C)C)c(=N)n(Cc4ccncc4)c3nc12	-6	-1.4	-3	0.6%	-1.4	4
CCCCCNC(=O)c1ccc2c(=O)n(CC3CCCO3)c(=S)[nH]c2c1 (stereo unspecified)	26	0.0	-5	0.4%	-4.6	3
SMILES	Six1-Eya2 blk	TRPML1 ag	D2 potentiator	PINK1 modulator	D2 ag	CtBP-E1A inh
COc1cccc(CN2C(=O)C(C)N(C(=O)c3ccccc3)c3ccccc32)c1 (stereo unspecified)	1	3.6	-1	4.7%	-5.9	-6
O=C(O)Cc1ccc(O)c(O)c1	3	-0.2	18	1.7%	-2.9	15
O=C(CN1C(=O)C(=O)c2ccccc21)c1ccccc1	16	3.6	-5	6.0%	-17	/
CCOC(=O)c1sc(NC(=O)CSc2nnc(-c3ccco3)n2CC)c(C(=O)OCC)c1C	-11	1.3	-9	/	0.6	12
Cn1cc([N+](=O)[O-])c(C(=O)Nc2ccc(-c3nc4ccccc4[nH]3)cc2)n1	-4	-0.7	10	5.9%	4.7	-9
Cc1cccc(C(=O)NCCNC(=O)c2ccco2)c1	-8	1.1	-3	-2.5%	-4.0	-11
O=C(Nc1ccc2c(c1)OCCO2)c1ccc2ccccc2n1	-2	1.4	-8	-0.2%	-4.0	1
COCCNC(=O)C1CCCN(C(=O)c2cccnc2Oc2ccccc2)CC1 (stereo unspecified)	7	-0.3	-4	1.8%	-5.6	10
CC(CCc1ccccc1)NC(=O)COc1cc(F)ccc1[N+](=O)[O-] (stereo unspecified)	11	-0.2	-1	-1.9%	-2.5	-13
CN(CC(=O)Nc1ccc2c(c1)OCCO2)S(=O)(=O)c1cccc2cccnc12	-11	-0.6	-2	3.7%	-1.7	-6
CCOC(=O)C1=C(Cn2cnc3ccccc32)NC(=O)NC1c1ccc(OC)cc1 (stereo unspecified)	0	0.7	0	-0.4%[38.3 µM]	1.0	-6
CCCCCCCCSc1nnc(/N=C/N(C)C)s1	-1	1.0	-6	0.7%	5.4	-12
CCOc1ccc2oc(C(=O)O)c(C)c2c1	5	-0.6	0	-0.3%	-0.1	7
COc1cc(/C=N/NC(=O)c2cccc3ccccc23)ccc1OCC(N)=O	?	0.7	-1	0.9%	7.1	-14
O=C(O)c1sc(C(=O)O)c(-c2ccccc2)c1-c1ccccc1	4	-0.5	-4	1.8%	-3.0	3
CCOC(=O)c1cc([N+](=O)[O-])cc([N+](=O)[O-])c1Sc1ncnc2nc[nH]c12	-8	1.9	22	-3.9%	11	-6
CC(C)N(C)CCOC(=O)c1ccccc1Br	-7	0.5	-8	-0.4%	-4.1	-6
CCOC(=O)c1cnc2c(c(C)nn2CC)c1NC1CC1	3	2.9	-7	2.2%	-3.3	-2
O=C(Nc1ccc(O)cc1)c1cc2n(n1)C(C(F)(F)F)CC(c1ccco1)N2 (stereo unspecified)	-15	2.1	-2	4.7%	-1.5	-21
COc1cccc(-n2nnc3c(=O)n(CC(=O)NCC4CCCO4)cnc32)c1 (stereo unspecified)	0	0.1	-11	0.2%	-4.6	1
COc1ccc(NC(C)=O)cc1NC(=O)c1cccc(S(=O)(=O)N2CCN(Cc3ccccc3)CC2)c1	-12	-0.2	-4	-2.2%	-1.9	7
Cc1noc(C)c1COc1cccc(C(=O)Nc2ccc(OCc3ccccc3)cc2)c1	-4	0.8	-3	1.0%	1.5	3
CC(C)C1N(C(=O)CN2CCCCC2)CCN1S(=O)(=O)c1ccccc1 (stereo unspecified)	2	-0.5	11	1.6%	6.2	8
CCOC(=O)N1CCN(C(=O)CCc2ccccc2)CC1	6	0.0	8	-1.2%	-2.9	/
O=C(CSc1ccc(Br)cc1)NCC1CCCO1 (stereo unspecified)	6	1.0	-4	-0.1%	-1.8	12

Part of the list above in order of molecular weight, smallest number first:
SMILES	Six1-Eya2 blk	TRPML1 ag	D2 potentiator	PINK1 modulator	D2 ag	CtBP-E1A inh
CCOC(=O)N1CCN(C(=O)CCc2ccccc2)CC1	6	0.0	8	-1.2%	-2.9	/
O=C(Nc1ccc2c(c1)OCCO2)c1ccc2ccccc2n1	-2	1.4	-8	-0.2%	-4.0	1
O=C(O)c1sc(C(=O)O)c(-c2ccccc2)c1-c1ccccc1	4	-0.5	-4	1.8%	-3.0	3
CCOC(=O)C1=C(Cn2cnc3ccccc32)NC(=O)NC1c1ccc(OC)cc1 (stereo unspecified)	0	0.7	0	-0.4%[38.3 µM]	1.0	-6

Carrying on.
SMILES	Six1-Eya2 blk	TRPML1 ag	D2 potentiator	PINK1 modulator	D2 ag	CtBP-E1A inh
FC(F)(F)c1ccccc1NC(=S)N1CCN(c2ccccn2)CC1	3	1.1	2	0.2%	-1.5	/
CCOC(=O)COc1ccc(S(=O)(=O)NCc2ccncc2)cc1	5	0.4	17	/	4.2	11
CS/C(=C\[N+](=O)[O-])Nc1ccc(OC(F)(F)F)cc1	-2	-0.2	2	2.9%	-0.6	7
COc1ccccc1Nc1ccc(NC(=O)c2cccc([N+](=O)[O-])c2C)cc1	?	2.6	-25	-0.6%	-4.2	/
COc1ccc(CNC(=O)c2sc(=O)n(Cc3cc(Cl)ccc3OC)c2C)cc1	?	0.5	-1	1.9%	5.4	-14
CC1CC(=O)C2=C(C1)OC(N)=C(C#N)C2c1coc2ccccc2c1=O (stereo unspecified)	-3	0.7	-11	0.7%	-0.7	4
O=C(COC(=O)c1cncc(Br)c1)NCc1ccccc1Cl	7	-1.7	-3	-0.6%	-6.6	0
CCCc1cc(C(=O)Nc2cccc(-c3nn[nH]n3)c2)sc1C	?	-0.2	-6	0.3%	-4.3	-6
CCOc1cc(-c2nc(-c3ccc(C)nc3OC)no2)cc(OCC)c1OCC	9	0.1	11	13%	-1.2	5
O=C(Nc1ccc(N2CCOCC2)cc1)c1cn2ccccc2n1	7	-0.5	-15	0.5%	0.5	-2
Cc1ccc(Nc2cc(C)nc(N3CCOCC3)n2)c(C)c1	-2	2.5	13	0.0%	-0.8	-14
CC(=O)c1cccc(N(CC(=O)Nc2ccc(S(=O)(=O)N3CCOCC3)cc2)S(C)(=O)=O)c1	1	-0.1	-20	-0.8%	-2.2	9
CCC(=O)OC1CSc2nc3ccccc3n2C1 (stereo unspecified)	3	-0.4	5	5.1%[38.3 µM]	-2.4	2
CCOCCOC(=O)C1=C(C)NC(=O)NC1c1ccc2c(c1)OCO2 (stereo unspecified)	5	0.0	-4	-0.3%	-6.0	-1
CC(C)(C)OC(=O)C[C@H]1C/C=C\C[C@H](CC(=O)N[C@@H](CO)Cc2ccccc2)C(=O)N[C@H](C(C)(C)C)COC1=O	0	-0.8	/	-0.6%	-0.1	3
COc1ccc(-n2nnnc2CNC(=O)c2c(-c3ccccc3Cl)noc2C)cc1	-3	-0.6	2	0.1%	-1.3	4
COc1ccc(NC(=O)CSc2nnc(Cc3ccc(C)cc3)c(=O)n2N)cc1OC	1	2.0	11	14%	5.7	5

Exported as comma-separated lines: entries from further up.
compound,Six1-Eya2 blk,TRPML1 ag,D2 potentiator,PINK1 modulator,D2 ag,CtBP-E1A inh
COc1ccccc1Nc1ccc(NC(=O)c2cccc([N+](=O)[O-])c2C)cc1,?,2.6,-25,-0.6%,-4.2,/
COc1ccc(CNC(=O)c2sc(=O)n(Cc3cc(Cl)ccc3OC)c2C)cc1,?,0.5,-1,1.9%,5.4,-14

Assay outcomes: PubChem, National Center for Advancing Translational Sciences (NCATS)
